Cruzain inh Det = blocks cruzain activity in presence of Triton detergent | P25779 | purified cruzain, Z-FR-AMC fluorescence, 0.01% Triton | Potency, µM, for inactives: max response, negative = inhibition, most hits filed as inhibitors | actives 0.43% (n = 200,000) | AID 1478;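 also: plate controls were neutral wells for no effect and buffer without enzyme for full effect; nearly all actives have a fitted effect of over 40% in size; top concentration of the series not given in the record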
Target sequence (P25779 123-467 limits assumed): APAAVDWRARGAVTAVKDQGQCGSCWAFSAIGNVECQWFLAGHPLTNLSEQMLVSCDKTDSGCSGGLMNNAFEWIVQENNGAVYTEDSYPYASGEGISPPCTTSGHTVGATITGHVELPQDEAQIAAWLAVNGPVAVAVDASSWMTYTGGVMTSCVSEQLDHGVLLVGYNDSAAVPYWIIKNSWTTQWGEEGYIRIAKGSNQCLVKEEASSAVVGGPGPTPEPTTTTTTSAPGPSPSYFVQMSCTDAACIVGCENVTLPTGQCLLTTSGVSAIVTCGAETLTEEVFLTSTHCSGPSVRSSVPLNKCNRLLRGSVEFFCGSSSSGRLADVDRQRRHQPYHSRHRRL
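Steps: dispense cruzain (1.5 nM final) in acetate buffer pH 5.5 with DTT and 0.01% Triton X-100; pin-transfer compounds; incubate 15 min RT; add Z-FR-AMC (2 uM final); read fluorescence every 30 s, using the 60 s intensity change.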
SARS PLpro yeast = SARS-CoV PLP inhibition in yeast. S. cerevisiae expressing SARS-CoV PLpro, growth rescue; control for the full effect not named in the record. Potency, µM (series often up to 32.9 µM), for the others: at the top dose activity, positive = growth rescue. actives 0.19% (n = 330,000). AID 485353; active means well fitted rising curve with a large enough effect; inconclusive means small, poorly fitted or top-dose-only effect; inactive means no such curve, though single readings can be large or run the other way; also: 0% is about no effect; nearly all actives have a fitted effect of over 55% in size; growth read by luminescence after 48 h
Lassa entry inh = Lassa virus entry inhibition. actives 1.2% (n = 300,000). AID 540256. Potency, µM (top dose mostly 37.9 µM), for inactives: top-dose activity change, negative = inhibition, usual class: inhibitors. Lassa virus pseudotype entry inhibition, cell reporter; control for the full effect not named in the record; active means well fitted inhibition curve with a large enough effect; inconclusive means small, poorly fitted or top-dose-only effect, or effect the other way; inactive means flat fitted curve, though single readings scatter; tested in HEK293 cells; also: % is scaled to controls: 0 for no effect and ±100 for the full control effect; nearly all actives have a fitted effect of over 50% in size; luciferase read-out
MARV entry inh = blocks Marburg virus binding to or entry into cells | Marburg virus pseudotyped entry inhibition, cell reporter; control for the full effect not named in the record; about a third of the inactives were read at about 46 µM | Potency, µM (series often up to 37.8 µM), for inactives: top-dose activity change, negative = inhibition, usual class: inhibitors | actives 1.8% (n = 300,000); active = well fitted inhibition curve with a large enough effect; inconclusive = small, poorly fitted or top-dose-only effect, or effect the other way; inactive = flat fitted curve, though single readings scatter; tested in HEK293 cells; about a fifth of its hits are not listed in these tables; also: % is scaled to controls: 0 for no effect and ±100 for the full control effect; luciferase read-out
NS1 function inh = influenza NS1 inhibition; S. cerevisiae slowed by influenza A NS1, growth recovery by OD600; Potency, µM (titrated, usually from 46.1 µM), for inactives: top-dose activity, positive = more growth; actives 0.4% (n = 270,000); active means well fitted rising curve with a large enough effect; inconclusive means small, poorly fitted or top-dose-only effect; inactive means no such curve, though single readings can be large or run the other way; also: nearly all actives have a fitted effect of over 50% in size
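In this qHTS, NS1 from influenza A is expressed in budding yeast, where it slows growth. Cells are switched from glucose to 2% galactose medium (pH 6.0, -URA), treated with compound, and growth recovery is read at OD600.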
RE007 growth inh = less growth of the S. pombe RE007 Vpr strain; S. pombe RE007 Vpr strain, BacTiter-Glo ATP luminescence, 24 h; control for the full effect not named in the record; Potency, µM (titrated, usually from 92.2 µM), without a hit: at the highest dose activity change, negative = less growth; actives 0.21% (n = 360,000); active = well fitted falling curve with a large enough effect; inconclusive = small, poorly fitted or top-dose-only effect; inactive = no such curve, though single readings can be large or run the other way;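 also: % is scaled to controls: 0 for no effect and ±100 for the full control effect; nearly all actives have a fitted effect of over 50% in size; the assay follows cell death caused by Vpr and the record does not say whether a fall means rescue or toxicity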
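Fission yeast strain RE007, carrying one chromosomally integrated HIV-1 vpr copy, was seeded at OD 0.01 in PMG+AL medium with 23 nL pinned compound. After 24 h at 30 °C and 99% humidity, viability was read by BacTiter-Glo luminescence.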
Cruzain inh noDet = blocks cruzain activity in detergent-free assay. purified cruzain, Z-FR-AMC fluorescence, no detergent. Potency, µM, without a hit: max response, negative = inhibition, usual class: inhibitors. actives 2.3% (n = 200,000). AID 1476;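 also: plate controls were enzyme without inhibitor for no effect and buffer without enzyme for full effect; nearly all actives have a fitted effect of over 40% in size; top concentration of the series not given in the record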
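Purified cruzain at 1.5 nM, pre-incubated 15 min with compound at room temperature in 100 mM sodium acetate pH 5.5, 5 mM DTT, 0.00005% Triton X-100. Reaction started with 2 uM Z-FR-AMC; AMC fluorescence increase over 60 s gives rate.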
StopGo reporter = lowers the luciferase signal of an FMDV 2A StopGo reporter. human cells with a luciferase reporter of 2A StopGo recoding; control for the full effect not named in the record. Potency, µM (titrated, usually from 57.9 µM), for inactives: at the top dose signal change, negative = less light. actives 1.2% (n = 410,000); active = well fitted falling curve with a large enough effect; inconclusive = small, poorly fitted or top-dose-only effect; inactive = no such curve, though single readings can be large or run the other way; tested in HEK293T cells; also: % is scaled to controls: 0 for no effect and ±100 for the full control effect; nearly all actives have a fitted effect of over 45% in size; luciferase light after 4 h
Starred values were filed as active, the others as inactive; ? = inconclusive; · = no result given; & = joins results of further samples; [ ] = remark or other dose. Unless noted, calls follow the shape of the dose curve; as a rule, active = well fitted curve in the direction sought with a large enough effect; inconclusive = small, poorly fitted or top-dose-only effect, or another doubt; inactive = no such curve, though single readings can be large; an effect the other way counts as inactive or inconclusive. Potency is read from the fitted curve at half-maximal effect.

SMILES	Cruzain inh Det	SARS PLpro yeast	Lassa entry inh	MARV entry inh	NS1 function inh	RE007 growth inh	Cruzain inh noDet	StopGo reporter
COC(=O)[C@@]1(Cc2ccc(F)cc2)[C@H]2c3cc(C(=O)N(C)C)n(Cc4ccc(C)c(F)c4F)c3C[C@H]2CN1C(=O)c1ccccc1	-5.9%	·	·	·	·	-13%	?	-19%
Nc1nnnn1N=C1CCCCC1	8.8%	6%	18%	-2%	-2%	2%	0%	-19%
CC(=O)N(C)c1ccc(NC(=O)c2ccc([N+](=O)[O-])cc2Cl)cc1	-0.1%	-1%	10%	10%	-12%	27%	6%	-20%
CS(=O)(=O)N(CC(=O)NCCSc1ccc(Cl)cc1)c1ccc2c(c1)OCO2	1.6%	2%	-19%	3%	-19%	-2%	7%	?
COc1ccc(NC(=O)c2ccc(CNS(=O)(=O)c3cccc(OC)c3)cc2)cc1	8.6%	4%	-23%	-9%	0%	-14%	-1%	-12%
CCOC(=O)c1c(-c2ccc(F)cc2)csc1NC(=O)CCN1C(=O)c2ccccc2C1=O	-1.7%	-4%	-25%	3%	10%	-3%	?	-5%
COc1ccc(OC)c(N2C(=O)CC(Cc3ccc(Cl)cc3)C2=O)c1 (stereo not drawn)	0.5%	18%	-26%	13%	-3%	?	5%	?
COc1ccc(CN(C(=O)Nc2cccc(Cl)c2)c2ccccn2)cc1OC	-9.1%	·	-4%[46.1 µM]	-24%[46.1 µM]	·	·	?	12%
CC(=O)/C=C(/C)NC(Cc1c[nH]c2ccccc12)C(=O)O (stereo not drawn)	1.6%&-2.6%	-7%&13%	19%&2%	6%&20%	6%&30%	1%&-1%	0%&-10%	-23%
Cn1c(=O)cc(SCC(=O)NCc2ccc(F)cc2)c2cc(Cl)ccc21	0.3%	·	14%[46.1 µM]	10%[46.1 µM]	·	·	-9%	-20%
CCOc1ccc(C(=O)c2cn(CC(=O)Nc3ccc(C)c(C)c3)c3ccc(OCC)cc3c2=O)cc1	0.0%	·	1%[46.1 µM]	1%[46.1 µM]	·	·	7%	0%
CCn1cnc2sc(C(=O)N3CCN(c4ccc(OC)cc4)CC3)c(C)c2c1=O	1.4%	-7%	-7%	19%	-5%	7%	19%	·
COc1ccc(CNC(=O)CN(Cc2ccccc2)S(=O)(=O)c2ccc(Cl)cc2)cc1	0.5%	-18%	-18%	-12%	5%	3%	6%	?
COc1ccccc1CNC(=O)c1ccc(NC2=NC3CS(=O)(=O)CC3S2)cc1 (stereo not drawn)	·	-8%	·	·	-4%	12%	·	6%
CCOC(=O)N1CCN(Cc2ccc(OCC(O)CN3CCCCC3)cc2)CC1 (stereo not drawn)	·	?	·	·	1%	1%	·	-14%
CC(C)c1nnc(NC(=O)COc2ccc3c(c2)OCO3)s1	·	11%	11%[46.1 µM]	?	-10%	-5%	·	0%
CCn1c(SCc2cc(=O)n3ccsc3n2)nc2ccccc21	·	-4%	15%	20%[46.1 µM]	·	30%	·	29%
O=C(CCNC(=O)c1ccc(Br)cc1)Nc1ccccc1N1CCCC1	·	-5%	7%	-4%	·	3%	·	-11%
COc1cccc(NC(=O)CSc2nnc(-c3cccs3)o2)c1	-1.1%	·	6%[46.1 µM]	?	·	·	2%	9%
CCOC(=O)N1CCN(C(=O)Cn2nc(C)n3nc(-c4ccc(OC)cc4)cc3c2=O)CC1	·	-3%	·	·	12%	-10%	·	0%
CCOC(CNC(=O)c1ccc2nc(N3CCC(C)CC3)sc2c1)OCC	-3.2%	-4%	-3%	?	-3%	18%	8%	-4%
O=C(O)c1ccccc1-c1ccccc1C(=O)Nc1ccc(-c2nc3cc(Cl)ccc3o2)cc1	·	1%	·	·	16%	11%	·	20%
CCOC(=O)CN1C(=O)C(=O)N(Cc2c(C)cc(C)cc2C)C1=O	·	6%	·	·	-1%	6%	·	-6%
CCOCCCNC(=O)Cc1ccc(F)cc1	-2.0%	-1%	-2%	5%	12%	·	-7%	·
CSCC[C@H](N)C(=O)N1CCC(C(=O)N[C@H](C)C(=O)Nc2ccc(C(C)C)cc2)CC1	·	0%	17%[46.1 µM]	?	5%	-12%	·	11%
COc1ccc(C(=O)c2c[nH]c(C(=O)NCC3CCCO3)c2)cc1 (stereo not drawn)	2.9%	-9%	3%	?	5%	4%	5%	17%
CCCNC(=O)COC(=O)/C(C#N)=C/c1cc(C)n(CCC)c1C	·	2%	14%	28%[46.1 µM]	·	1%	·	32%[activator]
CC(=O)OC1(c2ccccc2)CCN(C)C(C)C1C (stereo not drawn)	-0.5%	7%	4%	-36%	5%	2%	1%	-15%
COc1ccc(-c2nnn(CC(=O)c3ccccc3)n2)cc1OC	-5.1%	-2%	-6%	9%	-15%	-7%	-5%	·
Cc1cc(C2=NNC(=NCCc3ccccc3)SC2)c(C)n1-c1c(C)n(C)n(-c2ccccc2)c1=O	·	0%	-8%	1%[46.1 µM]	8%	13%	·	-4%
CCOC(=O)C(=O)N=Nc1c(O)n(C)c2ccccc12	·	-1%	-16%	10%	8%	-5%	·	-11%
COc1cc(CCCN2C(N)=NC[C@@H]2Cc2ccc(O)cc2)cc(OC)c1OC	·	0%	·	·	-1%	2%	·	-12%
CSc1ccccc1C(=O)Nc1cccc(C(C)O)c1 (stereo not drawn)	3.4%	-3%	6%	1%	-8%	-6%	-8%	·
Cc1cc(C)c(S(=O)(=O)Nc2ccc3oc(C)c(C(=O)OC(C)C)c3c2)cc1C	-4.9%	·	25%[46.1 µM]	-19%[46.1 µM]	·	·	-12%	22%
CCOC(=O)c1ccc(NC(=O)c2cnn(-c3ccc(C)cc3C)c2C2CCN(C(=O)OC(C)(C)C)CC2)cc1	-5.1%	·	-10%[46.1 µM]	·	·	·	-4%	0%
COc1ccc(CCC(C)NCc2ccc(C(F)(F)F)cc2)cc1 (stereo not drawn)	·	-4%	·	·	-11%	7%	·	-8%
Cc1cccc(C)c1NC(=S)N(Cc1cccnc1)Cc1ccccc1Cl	·	0%	12%[46.1 µM]	?	·	13%	·	7%
CC(C)CCNC(=O)CCSCCC(=O)NCCC(C)C	-1.7%	5%	17%	-23%	-5%	·	27%	-10%
COc1ccc(OC)c(NC(=O)CCN2CCC(C)CC2)c1	3.7%	5%	-15%	3%	2%	4%	-16%	·
CCCNc1c(NC(=O)COc2ccc(Cl)cc2)c(=O)oc2ccccc12	·	1%	·	·	6%	-13%	·	-6%
CC(C)c1ccc(NC(=O)C(c2ccccc2)N(Cc2ccco2)C(=O)CC2NC(=O)NC2=O)cc1 (stereo not drawn)	·	2%	?	-22%[46.1 µM]	·	-1%	·	-27%
Cc1ccc2c(c1)/C(=C/c1ccccc1C)C(=O)N2	·	-3%	?	11µM*	-1%	24%	·	-22%
COC(=O)c1sc(S(=O)(=O)NCCCN(C)C)c(C(=O)OC)c1C	·	1%	14%	24%	·	-12%	·	8%
OCc1cc(Br)ccc1OCc1nc2ccccc2s1	·	1%	·	?	2%	2%	·	-9%
CC(CCn1cccn1)NC(=O)CCc1nnc(CCc2ccccc2)o1 (stereo not drawn)	·	2%	-3%	10%[46.1 µM]	-5%	2%	·	20%

Compound profiles, as listed above. Screens in order: Cruzain inh Det	SARS PLpro yeast	Lassa entry inh	MARV entry inh	NS1 function inh	RE007 growth inh	Cruzain inh noDet	StopGo reporter
Cc1cccc(C)c1NC(=S)N(Cc1cccnc1)Cc1ccccc1Cl is entered as ·	0%	12%[46.1 µM]	?	·	13%	·	7%
CCCNc1c(NC(=O)COc2ccc(Cl)cc2)c(=O)oc2ccccc12 is entered as ·	1%	·	·	6%	-13%	·	-6%
CCOC(=O)C(=O)N=Nc1c(O)n(C)c2ccccc12 is entered as ·	-1%	-16%	10%	8%	-5%	·	-11%

Later entries
SMILES	Cruzain inh Det	SARS PLpro yeast	Lassa entry inh	MARV entry inh	NS1 function inh	RE007 growth inh	Cruzain inh noDet	StopGo reporter
Cc1oc(S(=O)(=O)N(C)C)cc1C(=O)Nc1ccc(F)cc1	·	0%	·	·	-1%	26%	·	?
CCn1c(=O)c2cc(C(=O)N(C)c3cc(C)ccc3OC)sc2c2ccccc21	·	-2%	·	·	4%	-19%	·	-47%
Cc1ccccc1OCCC(=O)N1CCN(S(=O)(=O)c2ccc(F)cc2)CC1	·	-2%	-1%	-28%	-10%	-12%	·	-8%
CN(C)S(=O)(=O)c1cccc(NC(=O)CN2C(=O)NC(Cc3c[nH]c4ccccc34)C2=O)c1 (stereo not drawn)	·	1%	4%[46.1 µM]	18%[46.1 µM]	-2%	0%	·	-13%
CNC(=O)c1ccsc1NC(=O)c1ccc(S(=O)(=O)N2CCc3ccccc32)cc1	-6.5%	-4%	?	?	?	10%	-31%	?
CCCCn1c(CCNC(=O)c2ccc(F)cc2)nc2ccccc21	7.1µM*	·	9%[46.1 µM]	-26%[46.1 µM]	·	·	9%	-29%
COc1ccc(OC)c(CNC(=O)NCc2noc3ccc(C)cc23)c1	5.5%	·	14%[46.1 µM]	·	·	·	8%	-16%
Cc1cc(NC(=O)CSc2nnc(-c3cccs3)n2N)no1	0.3%	9%	10%	0%[46.1 µM]	?	15%	-1%	-8%
CCn1c2ccccc2c2cc(NC(=O)c3ccco3)ccc21	-2.8%	-9%	?	-14%	-54%	-26%	-30%	·
O=C(C1CC1)N1N=C(C2CCCCC2)CC1(O)C(F)(F)F (stereo not drawn)	·	0%	15%[46.1 µM]	10%[46.1 µM]	5%	2%	·	-12%
O=C1C(C2=NC(c3ccccn3)C3C(=O)N(c4ccc(OC(F)(F)F)cc4)C(=O)C23)=C(O)c2ccccc21 (stereo not drawn)	·	-5%	?	?	3%	-1%	·	?
COc1cccc(CN(C(=O)c2ccccc2Br)C2CCS(=O)(=O)C2)c1 (stereo not drawn)	·	-2%	·	·	-5%	-4%	·	-19%
CCN(C(=O)CSc1nnc(-c2c[nH]c3ccccc23)o1)C1CCS(=O)(=O)C1 (stereo not drawn)	·	1%	-3%	2%	·	2%	·	7%

Compound activity from PubChem BioAssay.
